Assay outcomes deposited in PubChem BioAssay by National Center for Advancing Translational Sciences (NCATS).
D2 agonist: Beta-Arrestin HTS for Positive Allosteric Modulators of the Human D2 Dopamine Receptor: Agonists; D(2) dopamine receptor (Homo sapiens), P14416; DiscoveRx PathHunter D2 beta-arrestin, luminescence, 90 min; 100% = 57 uM dopamine signal; activation, % (no concentration beside the values); hit rate 0.084% among 360,000; AID 624465, 2012; in the data active = activation above about 40%; inconclusive = about 15% to 40%; inactive = below about 15%; further: compound concentration not given in the record; the text of the record calls up to 30% inactive
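Agonist mode: compounds alone added to overnight-plated D2 PathHunter cells for 90 min at 37 C, with 57 uM final dopamine (EC100) defining full response. Beta-arrestin recruitment detected by chemiluminescent reagent, read after 1 h at ambient temperature.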
Six1-Eya2 inh: qHTS Assay for Inhibitors of the Six1/Eya2 Interaction; AlphaScreen GST-Six1/His-Eya2 binding, biochemical; hits give low values; control for the full effect not named in the record; activity change, % (no concentration beside the values); hit rate 0.56% among 360,000; AID 651725, 2012; in the data active = activity change below about -65%; inconclusive = about -30% to -65%; inactive = above about -30%; further: on the % scale 0 is the no-effect control and ±100 the full control effect; compound concentration not given in the record
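Six1/Eya2 binding was read as AlphaScreen signal after compounds were pinned into GST-Six1 plus His-tagged Eya2 (5X stock 250/500 nM) in pH 8.0 Tris/NaCl/TCEP buffer, beads added, then incubated 1 h, 37 C, dark.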
PINK1 expr mod: A Quantitative High throughput Screen to Identify Chemical Modulators of PINK1 Expression. PINK1 immunofluorescence, high-content cytometry, 24 h. Potency, µM (doses to about 76.6 µM), for the others: top-dose activation (PINK1 increase), usual class: activators. hit rate 0.2% among 410,000; active = well fitted activation curve with a large enough effect; inconclusive = small, poorly fitted or top-dose-only effect; inactive = flat fitted curve, though single readings scatter; cell line not stated here;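 further: potency means the concentration at half of the fitted maximal effect; % of control where 0% means no effect; nearly all actives have a fitted effect of over 65% in size; a mitochondrial uncoupler was the plate control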
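Compound titrations (5 concentrations, 24 h) on a stable cell line; DMSO and CCCP controls. Endpoint: fixed-cell PINK1 immunofluorescence with mitochondrial, cell and nuclear markers, scanned by microplate cytometer.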
TRPML1 ag: qHTS for Agonists of the Human Mucolipin Transient Receptor Potential 1 (TRPML1) | Mucolipin-1 (Homo sapiens), Q9GZU1 | TRPML1-expressing cells, Ca2+ dye fluorescence, FDSS; host cell line not named in the record; reference of the full effect not given here | activation, % (concentration not given with the values) | hit rate 0.12% among 410,000 | AID 624414, 2012; in the data active = activation above about 50%; inconclusive = about 30% to 50%; inactive = below about 30%; further: 0% is about no effect; the text of the record puts the active cut at 80%
Target sequence (Q9GZU1 whole entry, looked up): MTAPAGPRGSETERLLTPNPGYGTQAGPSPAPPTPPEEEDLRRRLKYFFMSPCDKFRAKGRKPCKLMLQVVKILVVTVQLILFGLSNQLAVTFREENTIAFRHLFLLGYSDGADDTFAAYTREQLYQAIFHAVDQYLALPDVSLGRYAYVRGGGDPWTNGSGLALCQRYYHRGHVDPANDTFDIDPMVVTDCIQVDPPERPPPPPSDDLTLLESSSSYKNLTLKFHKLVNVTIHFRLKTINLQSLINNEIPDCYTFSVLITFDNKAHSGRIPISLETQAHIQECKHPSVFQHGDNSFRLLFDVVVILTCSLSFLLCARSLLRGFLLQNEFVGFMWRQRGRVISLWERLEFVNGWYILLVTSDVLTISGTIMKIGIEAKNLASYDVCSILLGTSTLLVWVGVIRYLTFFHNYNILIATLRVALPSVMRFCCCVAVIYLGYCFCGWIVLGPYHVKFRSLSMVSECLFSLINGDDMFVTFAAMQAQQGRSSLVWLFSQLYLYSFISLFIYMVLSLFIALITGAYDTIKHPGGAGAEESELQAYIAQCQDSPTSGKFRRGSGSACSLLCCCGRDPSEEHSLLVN
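Cells: TRPML1-DL, 1X Tet inducer, ~16 h at 37 degrees C/5% CO2. Dye: ABD Ca8 no-wash + quencher, 45-90 min RT. Read: 10 s baseline, compound add, 110 s agonist phase; 54-4 EC80 (4uM final), 110 s antagonist phase.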
CtBP-E1A inh: qHTS Assay for Inhibitors of the CtBP/E1A Interaction | CtBP / adenovirus E1A interaction (AlphaScreen) | AlphaScreen GST-E1A/His-CtBP binding, 1536-well; hits give low values; control for the full effect not named in the record | hit rate 0.49% among 340,000 | AID 651724, 2012 | activity change, % (test concentration not listed); in the data active means activity change below about -65%; inconclusive means about -30% to -65%; inactive means above about -30%; further: on the % scale 0 is the no-effect control and ±100 the full control effect; compound concentration not given in the record
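In 5 uL wells, 23 nL compound meets equimolar GST-E1A and His-CtBP (5X stock 125 nM each) for 2 h, 37 °C. Beads (5X, 50 ug/mL) then 1 h, 37 °C, dark.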
D2 potentiator: Beta-Arrestin HTS for Positive Allosteric Modulators of the Human D2 Dopamine Receptor: Potentiators; DiscoveRx D2 beta-arrestin cells, luminescence, 90 min; 100% = 57 uM dopamine signal; hit rate 0.23% among 360,000; D(2) dopamine receptor (Homo sapiens), P14416; potentiation, % (test concentration not listed); active = potentiation of 50% or more; inconclusive = 30% to 50%; inactive = 30% or less;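 further: compound concentration not given in the record; tested on top of an EC20 dose of dopamine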
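D2 cells co-treated with compound plus 50 nM dopamine (EC20) for 90 min at 37 deg C to detect potentiation. Beta-arrestin recruitment was read as enzyme-fragment luminescence after 1 h at ambient temperature. Full response was set by 57 uM dopamine.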
Active calls of the source: *; ? = inconclusive; / = not tested or not shown; & = joins results of further samples; [ ] = dose if it differs, or a comment.

SMILES | D2 agonist | Six1-Eya2 inh | PINK1 expr mod | TRPML1 ag | CtBP-E1A inh | D2 potentiator
O=C(c1cccn2c(=O)c3ccccc3nc12)N1CCN(c2ccccn2)CC1 | -2.1 | 0 | -6.4%[38.3 µM] | -0.4 | -2 | -2
Cc1cc(C)n(-c2nc(SCC(=O)N3CCCC3)c3c4c(sc3n2)CCCC4)n1 | -0.4 | 5 | 0.1% | 1.7 | 0 | -18
COC(=O)C1(C(F)(F)F)N=C2Sc3ccccc3N2C(N2CCOCC2)=N1 (configuration not stated) | -1.5 | 2 | 0.6% | -0.2 | 5 | -6
Cc1cccc(CNS(=O)(=O)c2csc(C(N)=O)c2)c1 | 1.6 | 9 | 4.9%&0.2% | 3.0&-0.2 | / | -4
CC(C)Sc1nc2ccccc2c(=O)[nH]1 | -1.2 | 5 | / | 0.0 | 0 | -12
COc1ccc(C(=O)Nc2cc(OC)c(Cl)cc2OC)cc1 | -1.8 | -11 | 0.2% | 2.9 | / | 2
Cc1ccnc(SCC(=O)N2CCN(c3ccccc3)CC2)n1 | 0.8 | 2 | 0.7% | -0.6 | 3 | -2
Cc1ccc(C(C(=O)NC(C)(C)C)N(Cc2ccc3c(c2)OCO3)C(=O)c2ccc(CN3CCOCC3)o2)o1 (configuration not stated) | -0.3 | -3 | 2.8% | 0.2 | -4 | 0
O=C(C[C@@H]1C[C@@H]2c3cc(NC(=O)C4CCC4)ccc3O[C@@H]2[C@@H](CO)O1)NCc1ccc(Cl)cc1 | 4.1 | -1 | -0.4% | 0.0 | -23 | -2
CCOc1ccc(-c2c(C(=O)N/N=C/c3c[nH]c4ccccc34)nnn2-c2nonc2N)cc1 | ? | -4 | 2.6% | 0.6 | -18 | -2
Cc1ccc(C(=O)COC(=O)CCc2ccc(S(=O)(=O)N3CCCCC3)cc2)cc1 | 4.3 | 5 | 5.8% | 1.4 | 4 | -21
Cc1ccc(N2CC(NC(=O)C(=O)c3c[nH]c4ccccc34)CC2=O)cc1C (configuration not stated) | -7.3 | 3 | 7.2% | -0.4 | 6 | -4
CCOC(=O)c1c(NC(=O)c2cc3n(n2)C(C(F)(F)F)CC(c2cccs2)N3)sc(C)c1C (configuration not stated) | 0.6 | -5 | ? | 0.1 | -1 | -2
CCCCNC(=O)C1CCN(Cc2ccc(OCc3ccccc3)c(OC)c2)CC1 | 2.2 | 15 | 1.0% | / | / | -25
CCn1cc(C(=O)NCCCOC(C)C)c(=O)c2cc(S(=O)(=O)N3CCC(C)CC3)ccc21 | 2.7 | 1 | 2.0% | 2.8 | / | -1
COc1ccc(S(=O)(=O)N2CCCCCC2)cc1NC(=O)CN1C(=O)CNC1=O | -1.3 | -6 | 2.6% | -0.2 | 4 | -4
O=C(COC(=O)[C@@H]1CCCN1C(=O)c1cccs1)Nc1cccc([N+](=O)[O-])c1 | -3.3 | -1 | -0.7% | -0.3 | 3 | -6
CCCOC(=O)C1=C(C)N(C)C(=O)NC1c1cc2c(cc1[N+](=O)[O-])OCO2 (configuration not stated) | -4.7 | -16 | 0.9% | 0.0 | -8 | -2
COc1ccc(N(Cc2ccccc2)S(=O)(=O)c2ccc(C)cc2)cc1 | 2.7 | 14 | 0.1% | 0.0 | / | -6
O=C(O)c1cc(-c2ccco2)nn1-c1ccc(Cl)cc1 | -1.8 | ? | 1.4% | 0.0 | 0 | -14
COc1ccc(Nc2ncnc3ccccc23)cc1 | -0.3 | 4 | -1.4% | 0.0 | 6 | 18
COc1ccc(CCNC(=O)CSc2nnc(Cc3csc(N)n3)n2C)cc1OC | 4.2 | -10 | -0.1% | 0.9 | -1 | -19
CCOc1ccc2nc(NC(=O)CSc3nc4cccnc4n3C)sc2c1 | 0.7 | 6 | -1.5% | -0.2 | 8 | -6
COc1cc(CNc2ccc(C(=O)O)cc2)cc(Br)c1OCC(=O)NC(C)(C)C | -2.3 | 4 | 3.1% | -0.4 | 3 | 0
COc1ccc(NC(=O)c2cccc(S(=O)(=O)N3CCc4ccccc43)c2)cn1 | -0.6 | -2 | 4.2% | -0.4 | -5 | -1
The list continues.
SMILES | D2 agonist | Six1-Eya2 inh | PINK1 expr mod | TRPML1 ag | CtBP-E1A inh | D2 potentiator
NS(=O)(=O)c1ccc(NC(=O)CSc2cn[nH]n2)cc1 | 1.8 | 6 | -0.5% | 2.0 | 4 | 0
O=C(CCN1CCCC1Cc1ccccc1)c1ccc2c(c1)OCCO2 (configuration not stated) | 6.8 | -6 | -2.7% | 4.2 | -1 | -18
COc1cc2c3nnc(-c4ccc(F)cc4)c-3cn(Cc3ccccc3F)c2cc1OC | ? | 0 | ? | 0.7 | 1 | 1
COC(=O)C(NC(C)=O)(Nc1ccc(Br)cn1)C(F)(F)F (configuration not stated) | -3.3 | -2 | -0.9% | -0.9 | 0 | -12
C/C(=N\N(C)C)c1ccc(OCCOc2ccc([N+](=O)[O-])cc2)cc1 | 7.1 | -17 | 1.7% | 1.0 | -13 | 4
COc1cc(/C=N/N=C2/C(=O)Nc3ccccc32)ccc1O | -7.1 | -25 | -0.1% | -0.4 | -23 | -27
S=C(NCC(c1cccnc1)N1CCOCC1)NC1CCCCC1 (configuration not stated) | 1.7 | 5 | -0.8% | -0.3 | 8 | -8
FC(F)(F)c1nnc2c(Sc3ccccc3)nc3ccccc3n12 | -0.9 | -1 | -2.3% | 0.4 | 6 | 0
Cc1cccc(NCCNc2cccc(C)c2)c1 | -2.1 | -24 | -0.5% | -0.9 | -21 | 4
Cc1cc(C)c(S(=O)(=O)N2CCN(C(=O)C3COc4ccccc4O3)CC2)c(C)c1 (configuration not stated) | -1.5 | -1 | 0.9% | 1.0 | -3 | 2
CCn1c(SCC(=O)NC2CC2)nnc1-c1ccncc1 | 2.8 | 1 | 1.5% | 0.9 | -2 | -2
O=C(NCC(c1cccs1)N1CCOCC1)c1ccc(Cl)c([N+](=O)[O-])c1 (configuration not stated) | -4.9 | 5 | 11% | 0.0 | -4 | -3
CCN(CC)S(=O)(=O)c1ccc(Cl)c(NC(=O)COC(=O)/C=C/c2ccc(O)c(OC)c2)c1 | -4.2 | ? | 1.9% | -0.4 | ? | -3
Cc1c(C)n2c(SCC(=O)N3CCOCC3)nnc2[nH]c1=O | -2.7 | 1 | 0.8% | 0.1 | 7 | -29
CC(C)C(OC(=O)c1ccco1)C(=O)NC1CCCC1 (configuration not stated) | -1.4 | 7 | 1.9% | -0.8 | 0 | 0
CC1(C)C2CCC(C2)C1(C)NC(=O)CNCC1CCCCC1 (configuration not stated) | -0.6 | 5 | 20% | -0.3 | 2 | -3
CC(C)[C@H](NC(=O)c1ccccc1)C(=O)OCC(=O)N1CCc2ccccc2C1 | -3.1 | 1 | 0.8%[38.3 µM] | 0.4 | 0 | -6
Cc1nnc(C)n1/N=C/c1ccc(-c2ccccc2)cc1 | -5.0 | -9 | -0.9% | 0.6 | -3 | -29
Nc1nc(SCC(=O)c2ccc(Oc3ccccc3)cc2)n[nH]1 | 1.6 | -1 | 2.8%[38.3 µM] | 1.0 | -4 | 4
COc1cc(CNCc2ccc(OC)cc2OC)cc(OC)c1 | -2.1 | -1 | 0.6% | 0.6 | / | -58
COc1ccc(/C=N/N=C2\SCC(=O)N2c2c(C)n(C)n(-c3ccccc3)c2=O)cc1OC | 0.3 | -10 | 5.2% | -0.4 | -2 | 5
O=C(O)c1ccc2c(c1)S(=O)(=O)c1cc(Cl)ccc1C2=O | 1.9 | 1 | 0.5% | -0.8 | 5 | 16
CC(CN(C(N)=O)c1ccccc1O)C(=O)O (configuration not stated) | 1.6 | -2 | 2.5% | -0.6 | 4 | -5
O=C(Nc1ccc2c(c1)CCC2)c1ccccc1F | -5.2 | 4 | 2.5% | 0.3 | 1 | -6
O=C(O)c1ccccc1OCc1ccccc1Cl | -0.6 | 3 | -0.8% | 1.0 | -2 | -7
Cc1cc([N+](=O)[O-])ccc1NCc1ccc2ccccc2c1 | -2.8 | -25 | 0.1%[38.3 µM] | -0.4 | -13 | -5
CC(C)CNC(=O)c1ccccc1NC(=O)CSCc1ccccc1 | -1.8 | 3 | 14% | -0.3 | 5 | -2
CN1C(=O)CS(=O)c2ccc(C(=O)NCCC3=CCCCC3)cc21 (configuration not stated) | 5.5 | 1 | 2.4% | 0.6 | 6 | -10

Outcome played no part in choosing rows (roughly 1.3% active in at least one column).
